Calb FLC = C. albicans growth modulation with fluconazole; 0.57% of 300,000 active; AID 1979; C. albicans CaCi-2 (fluconazole-resistant clinical isolate) + fluconazole, Alamar Blue growth, 48 h; growth inhibition, % (concentration not given with the values);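 active = most replicates above 75%; inconclusive = exactly half above 75%; inactive = most below 75%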;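 also: all wells also contain fluconazole at 8 µg/ml as a sub-toxic cotreatment; 0% = median of DMSO wells and 100% = median of geldanamycin control wells; wells of about 8 µL received 7.5 nL stock; the first replicate is given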
T cruzi repl = T. cruzi replication inhibition | T. cruzi beta-gal in NIH3T3, luminescence, 90 h | inhibition, % (no concentration beside the values) | 1.4% of 300,000 active;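 active = mean inhibition across valid replicates above about 55%, limit read from the data; inconclusive = mean below that limit but half or more replicates reach it; inactive = mean below it, under half of replicates reach it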;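 also: signal also drops with host cell toxicity which is not excluded here; 0% = plate median of DMSO wells and 100% = zero luminescence signal; higher percent means less beta-gal luminescence so fewer parasites; stock transfer was 50 nL into about 50 µL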
Beta apoptosis = beta cell apoptosis inhibition | INS-1E cytokine-induced death, ATP luminescence, 48 h; percent of positive-control rescue, neutral wells zero | protection from apoptosis, % (no concentration beside the values) | 0.8% of 300,000 active;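 active = all replicates at 75% or more, or half of them and the mean; inconclusive = half reach 75% but not the mean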;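 also: 0% = cytokine-treated negative control wells and 100% = positive control rescue; higher means more ATP so stronger rescue from cytokine killing; wells of about 40 µL received 100 nL stock; the first replicate is given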
MLL AF4-AF9 inh = MLL-AF4/AF9 protein interaction inhibition; AlphaScreen, biotin-AF4 peptide binding to FLAG-AF9; 0.47% of 350,000 active; inhibition, % at 10 µM; P42568;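 active = every replicate reaching a set inhibition limit, whatever the replicate mean, cut at about 25% in these data; inconclusive = mean inhibition reaches that limit but some replicates miss it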;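 also: 0% = plate neutral control median and 100% = total signal loss; the record names both 10 and 1 µM as test concentration; the first replicate is given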
Target sequence (P42568 whole entry, looked up): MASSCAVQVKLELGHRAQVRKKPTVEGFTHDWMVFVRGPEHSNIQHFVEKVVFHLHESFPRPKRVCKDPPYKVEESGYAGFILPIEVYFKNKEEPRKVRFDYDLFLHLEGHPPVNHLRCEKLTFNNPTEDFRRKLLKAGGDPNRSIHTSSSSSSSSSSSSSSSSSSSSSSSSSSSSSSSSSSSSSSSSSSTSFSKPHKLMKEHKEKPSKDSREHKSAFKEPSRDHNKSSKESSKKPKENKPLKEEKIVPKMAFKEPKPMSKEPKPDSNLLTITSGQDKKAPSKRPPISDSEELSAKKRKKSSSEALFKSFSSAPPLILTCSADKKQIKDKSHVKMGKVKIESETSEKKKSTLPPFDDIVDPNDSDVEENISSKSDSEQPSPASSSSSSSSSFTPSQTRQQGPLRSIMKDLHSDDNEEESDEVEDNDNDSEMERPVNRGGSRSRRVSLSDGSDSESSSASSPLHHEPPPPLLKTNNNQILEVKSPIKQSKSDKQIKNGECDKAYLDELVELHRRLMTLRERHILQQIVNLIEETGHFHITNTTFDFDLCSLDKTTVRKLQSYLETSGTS
rRNA inh HTS = selective bacterial rRNA inhibition in E. coli; E. coli WT GFP vs humanized-ribosome RFP mutants, fluorescence, 24 h; hits give low values; DMSO median 0, no signal -100; 1.6% of 350,000 active; AID 720706; GFP signal change (wild-type ribosome), % (concentration not given with the values);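 active = significant combined selectivity score with lowered wild-type GFP, culture density cut under 30%, mutant RFP and density less affected; inactive = any of these conditions unmet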; also: one replicate is shown; some compounds called inactive have numbers as strong as hits
RanGTP-Imp inh = inhibitors of RanGTP-importin-beta interaction, primary screen, biochemical, FRET, CFP-Ran, YFP-importin-beta, homogeneous. cell-free CFP-Ran/YFP-importin-beta FRET ratio. inhibition, % (test concentration not listed). 1.1% of 300,000 active. AID 2216;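 active = most replicates above 15%; inconclusive = exactly half above 15%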;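 also: 0% = DMSO wells and 100% = Ran loaded with GDP instead of GTP; wells of about 40 µL received 100 nL stock; the first replicate is given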
Vif TR-FRET = HIV-1 Vif–A3G interaction blockers – biochemical, TR-FRET, GST-Vif 1-94, biotin-A3G peptide, dose response retest, primary screen (AID 1117319); TR-FRET GST-Vif / biotin-A3G peptide binding; higher % means a stronger effect; test concentration not given here; strong numbers were not always called active; one-dose inhibition, %; IC50 in µM for titrated hits; 0.57% of 260,000 active;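 active = above the screen mean plus three standard deviations and confirmed in dose response; inconclusive = results disagree or hit not tested in dose response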;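 also: Vif residues 1-94 fused to GST binding biotinylated APOBEC3G peptide 110-148; 0% = full assay without inhibitor and 100% = GST in place of GST-Vif; retest series ran down from 100 µM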
A1 inh = inhibitors of the anti-apoptotic protein A1, read as caspase activation; MEF A1-2A-BIM cells, Caspase-Glo 3/7 luminescence, 3 h; percent of clofoctol response, vehicle zero; caspase activation, % (concentration not given with the values); 0.066% of 330,000 active;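 active = over half of replicate activation scores above 10%, or exactly half above 10 with the replicate mean above 10; inconclusive = replicate mean below 10 yet half the replicates above 10; inactive = over half of replicates below 10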;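 also: wells of about 30 µL received 50 nL stock; many hits fall short of the cut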
rRNA inh HTS OD600 = recorded beside rRNA inh HTS, whose call it bears; OD600 change, %; measured here: OD600 growth;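 optical density of the mix in the first replicate; 0 = DMSO median and -100 = no signal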
rRNA inh HTS RFP = further read-out of rRNA inh HTS, marked with its call; RFP signal change, %; measured here: RFP humanized mutant strains;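 first replicate; 0 = DMSO median and -100 = no signal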
Starred values were filed as active, the others as inactive; u = inconclusive; x = not tested or not shown; & = joins results of further samples.

SMILES	rRNA inh HTS	rRNA inh HTS RFP	A1 inh	MLL AF4-AF9 inh	RanGTP-Imp inh	T cruzi repl	Calb FLC	Vif TR-FRET	rRNA inh HTS OD600	Beta apoptosis
O=S(=O)(c1ccc(-c2n[nH]c(=S)o2)cc1)N1CCCCC1	6.4	-1.3	0.4	0.4	0.9	-4.1	10.0	x	-3.3	4.6
CCOc1ccc(CCNC(=O)c2ccc(CS(=O)Cc3ccc(Cl)cc3)o2)cc1 (stereo unspecified)	-6.0	-3.6	0.9	2.5	4.7	17.0	15.1	-14.7%	-21.1	0.7
COc1ccc(C(=O)Nc2c(N)nc(SCC(=O)NCC3CCCO3)[nH]c2=O)cc1OC (stereo unspecified)	10.6	-0.2	0.1	-2.6	x	1.4	x	3.9%	4.7	-6.4
COc1ccc(C(CNC(=O)c2oc3cc(C)c(C)cc3c2C)N2CCCCC2)cc1 (stereo unspecified)	4.0	-2.9	2.1	3.8	2.5	17.0	-10.2	x	6.6	-0.3
O=C(Nc1ccncc1)Nc1ccc(Cl)cc1	-31.4	5.3	0.0	2.4	7.1	44.7	2.5	x	-52.5	5.7
O=[N+]([O-])c1ccc2c(c1)C=C1CCCCC1(N1CCCCC1)O2 (stereo unspecified)	x	x	2.0	x	6.2	-4.9	-1.2	3.0%	x	9.7
Cc1ccc(CCNC(=O)C2CC(=O)N(CCc3ccccc3)C2)cc1 (stereo unspecified)	-5.1	-0.9	1.3	-0.6	3.0	-3.7	5.5	5.1%	-5.5	-3.6
COc1cccc(Nc2nnc(SCc3cc([N+](=O)[O-])cc4c3OCOC4)s2)c1	x	x	1.4	x	-2.5	18.3	-3.9	0.5%&-2.9%	x	5.6
Cc1oc(-c2ccccc2Cl)nc1CSCC(=O)NC1CCCC1	x	x	-0.7	x	3.2	6.3	-17.8	1.1%	x	-1.8
CN1CCN(NC(=O)Nc2ccc(Br)cc2Cl)CC1	11.9	3.6	0.7	-0.2	0.4	51.3	6.9	x	13.3	-1.0
O=S(=O)(c1c(F)cccc1F)N1CCN(C(=S)NCc2ccc3c(c2)OCO3)CC1	9.7	0.1	2.5	1.7	x	3.7	-43.8	x	3.6	1.6
CCOC(=O)c1ccsc1NC(=O)CCS(=O)(=O)c1ccccc1	-10.3	1.9	-0.4	-1.2	2.9	5.4	33.3	-5.8%	-21.3	-29.0
Cc1ccn(CCSCC(=O)O)n1	x	x	-1.4	x	4.6	-23.5	-4.3	-2.4%	x	x
C(#CC12CC3CC(CC(C3)C1)C2)CN1CCOCC1	34.5	1.8	1.5	-0.1	0.7	-3.2	-29.8	5.3%	18.6	1.5
Cc1cc(N2CCCN(C)CC2)nc2cc(Cl)ccc12	x	x	0.0	x	0.7	47.2	8.7	-5.8%	x	-2.9
C=CCNC(=S)NNC(=O)CSc1nc2ccccc2s1	-24.0	-7.1	0.1	-7.9	-0.3	-11.2	15.3	17.9%	-24.0	-1.2
CS(=O)(=O)c1ccc(NS(=O)(=O)c2ccc3ccccc3c2)cc1	-3.4	1.1	-0.7	-1.2	2.4	-5.9	-0.1	7.1%	0.9	-4.0
O=S(=O)(/N=C(/Nc1ccc(Cl)c(S(=O)(=O)N2CCOCC2)c1)c1ccc(F)cc1)c1ccccc1	-3.5	-0.9	-0.8	-0.1	-5.0	4.7	-4.8	-5.7%	-23.6	-3.1
CCC(C)c1ccccc1NC(=O)CN1CCN(C/C=C/c2ccccc2)CC1 (stereo unspecified)	x	x	-0.5	-0.2	3.2	44.4	14.3	0.8%	x	4.8
COC(=O)CSc1cc(C(=O)c2nccn2C)c2ccccc2n1	x	x	0.9	x	-1.5	0.2	-2.7	-0.5%	x	-0.6
COCCn1c(SCC#N)nnc1-c1ccccc1	x	x	-0.2	x	2.9	-5.0	0.1	-3.0%	x	9.1
CCOC(=O)c1c(NC(=O)COC(=O)c2nc(Cl)ccc2Cl)sc2c1CCC2	10.2	1.9	1.4	0.9	-0.1	5.3	1.3	16.9%	7.6	0.7
Cc1ccc2nc3nc(NCC4CCCO4)c(C(=O)NC4CCCC4)cc3c(=O)n2c1 (stereo unspecified)	x	x	0.8	x	180.6*	5.2	-12.7	-8.9%	x	-7.3
CCN(CC)Cc1c(O)c(Cl)cc2c3c(c(=O)oc12)CCCC3	x	x	-0.3	x	47.7*	8.6	-2.4	-2.3%	x	-1.4
CCOC(=O)Cc1csc(NC(=O)c2cc(C)c(C)s2)n1	-15.7	-9.9	-6.1	1.6	x	x	x	0.6%	-16.6	-0.4

Next section
SMILES	rRNA inh HTS	rRNA inh HTS RFP	A1 inh	MLL AF4-AF9 inh	RanGTP-Imp inh	T cruzi repl	Calb FLC	Vif TR-FRET	rRNA inh HTS OD600	Beta apoptosis
CC1CCCCC1NC(=O)CCCn1c(=S)[nH]c2ccsc2c1=O (stereo unspecified)	-2.4	0.2	-0.9	1.1	-1.2	-1.2	-9.3	-2.1%	-2.1	-4.0
NS(=O)(=O)c1ccc(-c2c(-c3ccccc3)sc3ccccc23)cc1	7.1	0.4	0.7	-0.9	x	x	x	x	4.3	1.6
O=C(O)c1ccc(NS(=O)(=O)c2ccc(Cl)c(Cl)c2)cc1O	x	x	-0.7	x	1.8	-3.0	-1.6	9.6%	x	-2.0
CN1CCC(=NNC(=O)CSc2ccc(Cl)cc2)CC1	11.9	0.6	0.3	-1.6	5.1	-7.8	-22.7	8.0%	3.7	-2.6
Cc1[nH][nH]c(=O)c1C(c1ccc(Br)cc1)c1c(C)[nH][nH]c1=O	-4.2	-4.8	-0.4	3.0	0.0	-13.2	10.6	4.5%	3.9	-10.0
CCOC(=O)[C@@H]1CCN(Cc2ccccc2)C[C@H]1c1ccccc1	-18.4	-2.2	-0.5	-0.9	-0.5	-4.6	-7.5	4.1%	-8.4	10.3
C=CCn1c(C)c(C(C)=O)c(N2CCN(C(c3ccccc3)c3ccccc3)CC2)nc1=S	9.8	9.4	0.7	8.9	29.8*	34.7	14.2	x	9.5	-2.8
CC(=O)Nc1cccc(NC(=O)c2ccccc2OCc2ccccc2)c1	1.1	2.3	-0.5	-4.5	-1.8	14.2	-3.2	x	5.0	4.8
Cc1ccc(-c2cc(C(=O)N(C)CC(=O)Nc3ccccc3Br)c3ccccc3n2)o1	-9.8	4.3	0.0	-12.9	5.1	-1.8	6.7	-0.5%	-11.2	0.7
CCOC(=O)c1sc(NC(=O)CSc2nncs2)c(C(=O)OCC)c1C	x	x	-0.3	x	6.2	21.3	3.2	-28.5%	x	-1.8
c1ccc(C2Nc3ccccc3-c3nc4ccccc4n32)cc1 (stereo unspecified)	x	x	0.6	x	-4.9	6.2	6.4	5.0%	x	61.9
Cc1nn(-c2ccccc2)c2c1P(=O)(O)/C(=C1\N(C)c3ccccc3C1(C)C)C=N2	3.2	2.0	1.0	0.1	28.7*	-3.1	2.2	0.2%	-1.6	5.8
CCOc1cc(-c2nc(-c3ccccc3OC)no2)cc(OCC)c1OCC	x	x	0.6	x	2.3	17.8	8.8	2.5%	x	6.6
COc1ccc(S(=O)(=O)N2CCOCC2)cc1Br	8.7	0.7	1.1	0.3	-2.2	5.6	0.3	x	7.1	1.1
C[C@H](CO)N1C[C@H](C)[C@@H](CN(C)Cc2ccc(Cl)c(Cl)c2)Oc2c(NC(=O)C3CC3)cccc2C1=O	-10.8&-13.5	0.9&-9.2	0.1	3.7&-5.9	x	x	x	x	-24.4&-16.8	6.2
CCOc1ccc(OCCCC(=O)Nc2cc(Cl)ccc2-n2cncn2)cc1	-8.4	0.4	0.2	1.9	x	x	x	-6.3%	-18.6	4.1
O=C(CSc1nnc(NC(=O)c2ccc(F)cc2F)s1)NC1CCCC1	10.0	2.0	-3.7	-2.8	2.3	-12.0	-7.0	x	20.5	5.6
O=C(COc1cccc(F)c1)Nc1nc(-c2ccncc2)cs1	4.4	4.3	2.1	1.8	x	x	x	x	16.7	-0.2
CCN(CC)CCNC(=O)c1nn(-c2ccc(C)cc2)c(=O)c2c1c1ccccc1n2C	x	x	-0.1	x	3.5	60.3*	-5.2	2.8%&23.9%	x	2.6
CC(C)=CCN1CCN(Cc2cn(C(C)C)c3ccccc23)CC1CCO (stereo unspecified)	7.3	-1.7	0.6	-1.2	1.4	46.5	6.2	x	-2.5	-3.5
Cc1ccc(N(CC(=O)NCCSCc2ccco2)S(C)(=O)=O)cc1	10.1	2.4	1.0	-57.8	2.0	0.7	0.7	7.5%	2.6	-2.5
COc1cccc(-c2c(C(=O)N/N=C(\C)c3ccco3)nnn2-c2nonc2N)c1	0.6	0.1	1.2	-1.6	-4.4	7.3	2.4	x	1.0	-7.0
CN(C)CCCN1c2ccccc2CCc2ccc(Cl)cc21	-57.7	-13.6	0.9	-0.3	0.3	8.5	x	2.3%	-76.2	-1.4
O=C(O)CSc1nnc(-c2cccc(S(=O)(=O)N3CCOCC3)c2)n1-c1ccc(F)cc1	12.4	-0.1	-0.1	-1.0	x	x	x	x	1.3	-1.8
O=C(NCc1ccco1)C(=O)NCC1OCCCN1S(=O)(=O)c1ccc(F)cc1 (stereo unspecified)	x	x	-0.4	x	-4.0	-16.7	7.2	-2.8%	x	-0.4

New compounds follow
SMILES	rRNA inh HTS	rRNA inh HTS RFP	A1 inh	MLL AF4-AF9 inh	RanGTP-Imp inh	T cruzi repl	Calb FLC	Vif TR-FRET	rRNA inh HTS OD600	Beta apoptosis
O=Nc1c(-c2ccccc2)cc2ccccn12	-22.2	6.9	-1.3	u	0.7	-9.7	38.6	0.7%	-22.9	-5.9
Cc1ccc(C)c(S(=O)(=O)N2CCN(C(=O)CCC(=O)c3cc(C)sc3C)CC2)c1	-4.9	3.9	-0.6	-0.4	0.8	23.9	18.2	-10.5%	-21.4	x
Cc1cccc(C(=O)NC(=S)Nc2ccc(S(=O)(=O)N3CCCCC3)cc2)c1	x	x	-0.2	x	5.5	-6.6	-28.3	u	x	14.4
COc1ccc2oc(=O)c(C(=O)NCc3ccc(C)cc3)cc2c1	7.7	-1.3	-2.2	4.8	2.2	-14.3	2.0	x	12.2	x
COc1cc(OC)cc(C(=O)OCC(=O)NC(C)CCc2ccccc2)c1 (stereo unspecified)	2.6	0.8	0.2	1.9	6.5	7.6	1.0	x	2.2	-4.8
CCO[C@H]1OC(C(=O)N2CCOCC2)=C[C@@H](C)[C@@H]1CCCO	-1.5	13.3	1.9	-6.3	-1.1	-16.8	-2.2	-6.6%	-9.4	2.0
COc1ccc(C2CC(c3ccccc3)=NN2C(=O)COC(=O)CNC(=O)c2ccccc2)cc1 (stereo unspecified)	6.7	2.8	0.6	-0.9	3.1	5.7	-10.8	-20.5%	2.3	-11.2
O=C(Nc1cccc(C(=O)N2CCCC2)c1)c1ccccc1	7.6	0.3	2.1	x	2.4	-6.8	2.9	u	12.5	-4.7

Not all compounds are listed; count on the stated rates, not on these rows.
